Assay outcomes from PubChem.
Sa growth 42C: S. aureus growth inhibition at 42 and 30 °C, primary screen, LtaS inhibitor project, RN4220, two temperatures | 0.53% of 170,000 active | relative growth, % (no concentration beside the values) | OD600, 20 h, 42 °C; stronger effect = lower value;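 active = growth at 42 °C up to 50% and 20 or more points under that at 30 °C, or under 10% at both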;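 note: 300 nL library stock went into each well; scaled to the means of positive and negative controls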
HCMV UL50-53 inh: inhibitors of HCMV UL50-UL53 interaction, biochemical, HTRF; inhibition, % (concentration not given with the values); normalized percent inhibition; 0.15% of 190,000 active; HCMV UL50-UL53 nuclear egress complex (human cytomegalovirus); AID 1918969, 2023;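 active = both replicates at 50% or more, plus weaker picks with an unusually low signal ratio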;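 note: stock transfer was 100 nL into about 20 µL; 0% = negative control wells and 100% = wells with untagged competitor protein; inactives centre near -12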
GIV-Gai inh: inhibitors of GIV peptide binding to Galpha-i3, primary screen, biochemical, fluorescence polarization, FITC-GIV GBA peptide, rat Galphai3; Guanine nucleotide-binding protein G(i) subunit alpha-3 (Rattus norvegicus), P08753; 0.42% of 210,000 active; percent of control (FP), % (concentration not given with the values); 90 min; stronger effect = lower value; scaled: aluminum fluoride 0%, vehicle 100%;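 active = replicate mean at 85% of control or lower, very high polarization wells dropped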;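 note: wells of about 15 µL received 100 nL stock; the first replicate is given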
Target sequence (P08753 whole entry, looked up): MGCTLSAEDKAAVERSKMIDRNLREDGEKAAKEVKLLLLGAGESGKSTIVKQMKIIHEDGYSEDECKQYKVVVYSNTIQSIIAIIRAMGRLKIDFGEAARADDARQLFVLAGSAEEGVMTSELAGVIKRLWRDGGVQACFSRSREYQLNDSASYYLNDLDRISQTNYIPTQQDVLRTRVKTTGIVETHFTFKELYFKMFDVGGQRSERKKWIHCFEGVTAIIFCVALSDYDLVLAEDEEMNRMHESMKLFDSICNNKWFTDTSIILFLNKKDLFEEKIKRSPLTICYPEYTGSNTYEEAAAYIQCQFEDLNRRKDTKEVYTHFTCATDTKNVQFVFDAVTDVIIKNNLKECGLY
Sa growth 42C second temp: recorded beside Sa growth 42C, whose call it bears; relative growth, %; measured here: growth at 30 °C;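 optical density after 20 h as mean of two plates; 100% = untreated growth and lower means inhibition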
* marks the source's active call; other numbers are inactive results; . = no result given; & = joins results of further samples.

SMILES	Sa growth 42C	Sa growth 42C second temp	HCMV UL50-53 inh	GIV-Gai inh
COc1cccc(NC(=O)Cn2c(=O)n(CCc3ccccc3)c(=O)c3c4c(sc32)CN(C(C)=O)CC4)c1	102	85	-6	107
O=C(c1cc(=O)[nH]c2ccccc12)N1CCSC1=NCCc1ccccc1	85	92	-34	.
CC1(C)C2CCC1(CS(=O)(=O)N1CCCN(c3nc4ccc(Cl)cc4s3)CC1)C(=O)C2 (stereo not given)	92	89	-20	102
CCCC1=NNC(=O)C1Cc1c(Cl)cccc1Cl (stereo not given)	88	61	-8	98
O=C(Nc1ccc(F)cc1)c1cccn1-c1nnc(N2CCCCC2)s1	102	84	.	98
CCCCCNC(=O)CCn1c(=O)[nH]c2ccccc2c1=O	88	95	.	101
CC(=O)N1c2nc(-c3ccc(F)cc3)nn2C2(CCCCC2)[C@@H]2CCCC[C@@H]21	.	.	-29	104
CCCNC(=O)Cn1ncc2c3ccccc3n(CCC)c2c1=O	114	109	.	107
Cc1ccc(OCc2nnc3sc(C4COc5ccccc5O4)nn23)cc1 (stereo not given)	.	.	-18	105
CCOC(=O)N1CCN(C(=O)CSc2nc3c([nH]c4ccccc43)c(=O)n2-c2ccc(OCC)cc2)CC1	90	86	-38	104
Cc1ccc2ncc(C(=O)NC(C)c3ccccc3)c(=O)n2c1 (stereo not given)	101	81	-56	100
CCCS(=O)(=O)Nc1ccc2c(c1)CCCN2C(=O)c1ccccc1	.	.	7	102
Cc1c(CN2CCc3ccccc3C2)sc2ccccc12	113	90	-27	104
CCn1c(C(=O)O)c(CC(=O)NCCc2ccc(OC)c(OC)c2)c2ccccc21	.	.	-25	95
Cc1c(NC(=O)C(C)OC(=O)c2ccc3c(c2)OCO3)c(=O)n(-c2ccccc2)n1C (stereo not given)	86	89	-8	.
O=C(NCCCN1CCN(c2ccccc2)CC1)c1nnc(Cc2c(F)cccc2Cl)o1	113	84	-8	103
Cc1ccc2cc(/C=C(\C#N)C(N)=O)c(N(C)C)nc2c1	99	95	-60	.
CCCCN(CC)CCNC(=O)CN1C(=O)COc2ccc(S(=O)(=O)N3CCCC3)cc21	104	86	-26	104
CN(O)/C=C/C(=O)c1ccc(Br)cc1	.	.	-18	115
N#Cc1ccc(OCC(F)(F)F)nc1	101	88	2	103
COc1ccc(N2CCN(CCCNC(=O)Nc3ccccc3)CC2)cc1	114&104	92&92	-14&-10	105&99
CCN(CC)S(=O)(=O)c1ccc2oc(SCc3cn4c(C)cccc4n3)nc2c1	104	87	0	.
O=C(CNC(=O)C1CCCCC1)Nc1ccc(Cl)cc1	110	85	-24	.
CCOC(=O)c1nn(-c2ccc(F)cc2)c(=O)c2c(NC(=O)C3c4ccccc4Oc4ccccc43)scc12	.	.	-26	99
O=C(NCCC(=O)N1CCOCC1)c1ccc(Cl)cc1	83	96	1	.
Cc1nc(C)c(C#N)c(-c2ccc(Cl)cc2)c1C#N	.	.	-18	106
COc1ccc(-n2ccn3c(CCC(=O)O)nnc3c2=O)cc1	83	94	3	103
CCOC(=O)c1scc(-c2ccc(C)cc2)c1S(=O)(=O)N1CCN(c2ccccn2)CC1	.	.	2	109
CCOc1ccc2nc(N3CCC(C(=O)Nc4cc(C)ccc4C)CC3)sc2c1	134	80	-23	101
CCc1nn(C(C)C(=O)NCCN2CCN(c3cccc(C)c3C)CC2)c(=O)c2cc3occc3n12 (stereo not given)	94	96	.	109
CSCCC1NC(=S)N(Cc2ccccc2)C1=O (stereo not given)	98	85	-11	.
OC(c1nc2ccc(F)cc2[nH]1)C(O)c1nc2ccc(F)cc2[nH]1 (stereo not given)	98	89	0	109
OC[C@H]1NC[C@@H](O)[C@@H]1O	.	.	-29	108
O=C(Nc1ccncc1)C1COc2ccccc2O1 (stereo not given)	91	82	-11	.
COc1ccc(OC)c(NC(=O)c2ccc(N3C(=O)C4CC=C(C)CC4C3=O)cc2)c1 (stereo not given)	.	.	5	107
COc1ccc(N2C(=O)/C(=C\c3cc(Br)ccc3O)C(=O)NC2=S)cc1	.	.	3	105
Cc1ccc(N2C(N)=C(C#N)C(c3ccccc3)C3=C2CC(C)(C)CC3=O)cc1 (stereo not given)	92	91	-1	.
CN1CCC(N(C)C(=O)c2cc3ccccc3o2)CC1	73	88	-8	.
CC12CCOC1N(Cc1ccccc1)c1ccccc12 (stereo not given)	117	94	-15	98
CN1CCC(NC(=O)c2cccc(C(F)(F)F)c2)CC1	112	96	-16	103
COc1ccc(-c2cc(C(F)(F)F)nc(S(=O)(=O)CCC(=O)NCc3cccnc3)n2)cc1	121	87	-5	106
COc1cc(C(CC(=O)Nc2ncccc2C)N2Cc3ccccc3C2=O)cc(OC)c1OC (stereo not given)	128	89	.	99
COc1ccc(C(=O)c2c(N)c(C(=O)Nc3cccc(OC)c3)c3ccccn23)cc1	103	90	-11&-7	105&101
CN1C(=O)C[C@H](C(=O)O)[C@H]1c1cccnc1	100	89	-5	.
O=C(Cn1ncn2c(cc3ccccc32)c1=O)NC1CC1	104	97	-4	103
COc1ccc(/C=C/C(=O)Nc2ccc(C)c(C)c2)cc1OC	103	89	-49	.
Cc1cccc(CNC(=O)Cc2c(C)n[nH]c2C)c1	.	.	-19	103
COc1ccc(C(=O)N2CCNC(=O)C2CC(=O)Nc2ccc(F)cc2)cc1 (stereo not given)	.	.	-5	104
Cc1ccc(C)c(NC2=C(c3ccc(C(F)(F)F)cc3)C(=O)c3ccccc32)c1	101	89	-11	100
CC(C)(C)c1csc(Cc2ccccc2Cl)n1	91	87	-13	101
CSc1ccccc1NC(=O)COC(=O)c1cccc2ccccc12	77	88	-21	.
CN(C(=O)CSc1ncn[nH]1)c1ccccc1	97	91	1	102
COCc1c(C(C)C)nc(C(C)C)c(/C=C/[C@@H](O)C[C@@H](O)CC(=O)O)c1-c1ccc(F)cc1	93&80	83&82	-34	96
Cc1ccc2oc(-c3nnc(C(=O)NCCCOC(C)C)o3)c(C)c2c1	.	.	-25	106
C=CCSc1nnc(COc2ccccc2)o1	.	.	-2	92
CCC1CN(C(=O)Nc2cccc3c2CCCC3)c2ccccc2O1 (stereo not given)	100	107	-7	106
COC(=O)C1=C(N)OC2=C(CCCC2=O)C1c1cccnc1 (stereo not given)	84	106	-9	.
COC(=O)Cn1c(C(=O)OC)ccc1-c1ccco1	106	82	.	105
CCOc1cc(OCC)cc(C(=O)Nc2cccc(-c3nc4ccccc4[nH]3)c2)c1	87	84	-35	100
O=P(c1ccccc1)(c1ccccc1)C(O)c1ccncc1 (stereo not given)	102	100	8	.

Whole records, quoted from the list. Order of values: Sa growth 42C | Sa growth 42C second temp | HCMV UL50-53 inh | GIV-Gai inh
COC(=O)C1=C(N)OC2=C(CCCC2=O)C1c1cccnc1 (stereo not given) is listed as 84 | 106 | -9 | .
Cc1cccc(CNC(=O)Cc2c(C)n[nH]c2C)c1 is listed as . | . | -19 | 103
COC(=O)Cn1c(C(=O)OC)ccc1-c1ccco1 is listed as 106 | 82 | . | 105
CCOc1cc(OCC)cc(C(=O)Nc2cccc(-c3nc4ccccc4[nH]3)c2)c1 is listed as 87 | 84 | -35 | 100
COc1ccc(C(=O)N2CCNC(=O)C2CC(=O)Nc2ccc(F)cc2)cc1 (stereo not given) is listed as . | . | -5 | 104

(list continues)
SMILES	Sa growth 42C	Sa growth 42C second temp	HCMV UL50-53 inh	GIV-Gai inh
Cc1ccc(-c2nccc(N3CCC(C(=O)NC(C)c4ccc(C)cc4)CC3)n2)cc1 (stereo not given)	.	.	-12	104
O=C(Nc1ccccc1C(F)(F)F)N1CCCCCC1	109	99	-9	99
CCOC(=O)c1cccc(NC(=O)C2CCCCC2)c1	119	104	-5	105
COc1ccc(-n2nnc(C(N)=O)c2N)cc1	94	76	15	106
Cc1onc(-c2ccccc2)c1C(=O)NCCN1CCNC1=O	100	99	2	107
CC(C)(C)c1ccc(C(=O)NCC(c2cccnc2)N2CCc3ccccc3C2)cc1 (stereo not given)	94	72	-6	119
Cc1ccc2nc3c(C(=O)O)cccn3c(=O)c2c1	.	.	-49	101
COc1ccccc1CNS(=O)(=O)c1c(C)nc2scc(C)n2c1=O	105	90	-4	103
CC1=C(C(=O)Nc2ccccc2)C(CC(C)C)n2nc(SCc3ccccc3C)nc2N1 (stereo not given)	100	90	-16	103
Cc1oc(-c2ccccc2)nc1C(=O)N(C)Cc1cccc(Cl)c1Cl	97	98	-18	.
Cc1ncc(CSc2nc(C(C)(C)C)cs2)c(CO)c1O	79	73	-14	101
Cc1oc2ncnc(N3CCC(C(N)=O)CC3)c2c1C(=O)O	84	85	-27	98
CCCCc1nn2c(=O)cc(COC(=O)c3cccc(NC(=O)c4cccc(Cl)c4)c3)nc2s1	84	81	.	103
CC(C)CN(CCNC(=O)c1cn(C)c2ccc(S(=O)(=O)N3CCCC3)cc2c1=O)CC(C)C	102	105	16	106
Cc1cccc(Nc2nc(N)nc(N)c2S(=O)(=O)c2ccccc2)c1	114	79	-16	102
Cc1nc(-c2cccc(N3CC(C(=O)Nc4ccc5c(c4)OCCO5)CC3=O)c2)no1 (stereo not given)	.	.	10	107
COc1ccc(C)cc1NC(=O)CSc1ncc2c(n1)-c1ccc(Cl)cc1N(Cc1ccccc1)S2(=O)=O	86	89	.	110
CCOc1ccc2c(c1)=C(c1sc(N)nc1O)C(=O)N=2	139	72	-2	101
O=C(CSc1ncnc2c1nnn2Cc1ccccc1)OCc1ccccc1	82	87	-32	104
COc1cc(-c2nnn(CC(=O)NCc3ccccc3)n2)cc(OC)c1OC	101	89	-4	106
Cn1ncc2c(Sc3ccc(Cl)cc3)ncnc21	96	93	10	105
Cc1cccc(N2CCN(CCCNc3ncnc4onc(-c5ccc(F)cc5)c34)CC2C)c1 (stereo not given)	83	91	.	99
Cc1cccc(-c2nccc(N3CCC(C(=O)N(C)Cc4ccccc4)CC3)n2)c1	.	.	-12	104
O=C(CN1C(=O)COc2ccccc21)NCc1ccco1	90	102	-5	106
CCN1CCN(c2ncc3c(n2)CCN(Cc2cc(F)cc(F)c2)C3)CC1	98	93	.	109
Cc1nc(NC2CCN(Cc3ccccc3)CC2)c2c(C)c(C)sc2n1	.	.	-6	107
COc1ccc(C2=NOC(C(=O)N3C(C)CCCC3C)C2)cc1 (stereo not given)	98	91	1	102
CC1=NNC(=O)C1Cc1ccccc1 (stereo not given)	119	85	-4	102
O=C(CCCc1nc2ccccc2c(=O)[nH]1)Nc1ccnn1C1CCCC1	88	93	-8	.
CC(NC(=O)Nc1ccccc1)c1ccccc1 (stereo not given)	77	91	4	105
CS(=O)(=O)N1CCN(c2cc(C(F)(F)F)nc3ccccc23)CC1	119	97	4	106
CN(CC(=O)NC1(C#N)CCCC1)Cc1cccc(F)c1	99	91	-23	.
COc1cc(C=O)ccc1Oc1nc(N2CCCCC2)nc(N2CCCCC2)n1	.	.	-26	104
CCOc1ccc(C2=CC(c3cccc(Br)c3)n3c(nc4ccccc43)N2)cc1Cl (stereo not given)	75	2	.	112
CCOC(=O)c1cc(C(=O)NN)c(C)nc1C	103	95	-30	.
N#Cc1ccccc1NC(=O)COC(=O)Cc1cccc2ccccc12	101	81	-28	.
O=C(COc1ccccc1)N(Cc1ccco1)c1ccc(O)cc1	94	77	-31	98
COc1ccc(-c2nnc(SCC(=O)NC3CCCC3)nc2-c2ccc(OC)c(OC)c2)cc1OC	100	90	.	99
Cn1c(=O)n(-c2ccc(F)cc2)c2nc(-c3ccc(F)cc3)nc(C(N)=O)c21	.	.	5	104
CC(=O)NCCC(=O)Nc1nnc(SCc2ccc(C#N)cc2)s1	98	94	-5	.
CCCSc1nc2c(cnn2CCO)c(=O)[nH]1	.	.	-2	102
O=S(=O)(Cc1noc(-c2ccc(Cl)cc2)n1)c1ccccn1	104	90	3	108
O=C(O)c1n[nH]c2c1CCC2	113	95	.	103
CC(C)c1cc(C(=O)O)n(-c2ccccc2)n1	192	100	2	.
O=C(Nc1nnc(-c2cc3ccccc3o2)o1)c1ccccc1	.	.	-62	101
CCc1nn2c(=O)cc(CSc3nc(C)cc(=O)[nH]3)nc2s1	108	99	4	108
CCOC(=O)c1cnc2c(C)cc(C)cc2c1NCCc1ccc(OC)c(OC)c1	102	94	-5	98

Reprinted at random: three compounds from above.
SMILES	Sa growth 42C	Sa growth 42C second temp	HCMV UL50-53 inh	GIV-Gai inh
CC(C)c1cc(C(=O)O)n(-c2ccccc2)n1	192	100	2	.
CCCSc1nc2c(cnn2CCO)c(=O)[nH]1	.	.	-2	102
O=C(Nc1nnc(-c2cc3ccccc3o2)o1)c1ccccc1	.	.	-62	101

An excerpt of the results above, for reference:
SMILES	Sa growth 42C	Sa growth 42C second temp	HCMV UL50-53 inh	GIV-Gai inh
CCCSc1nc2c(cnn2CCO)c(=O)[nH]1	.	.	-2	102
O=S(=O)(Cc1noc(-c2ccc(Cl)cc2)n1)c1ccccn1	104	90	3	108
